High-throughput results (PubChem)
AID923: qHTS Assay for Allosteric/Competitive Inhibitors of Caspase-1: Spectroscopic Profiling in AFC Spectral Region; AID 923, 2007; compound fluorescence, AFC spectral region (405/520 nm); almost no hit is shown here; 1.1% of 75,000 active; Potency, µM (top dose mostly 57.5 µM), for inactives: at the highest dose fluorescence increase, usual class: activators; active = well fitted activation curve with a large enough effect;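 note: 0% is about no effect; scaled to a free AFC standard on each plate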
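Baseline compound fluorescence (AFC region, 405 nm ex/520 nm em) taken from the intercept of kinetic reads with 50 nM caspase-1 and 5 uM Ac-WEHD-AFC; normalized to an on-plate AFC standard curve; compounds titrated up to 57 uM.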
* = called active by the depositor; & = joins results of further samples. Potency is the fitted concentration of half-maximal effect.

The opening 3 records, to show the layout:
CC1CCC2[C@](C)(CO)C(O)CC[C@]2(C)C12CCC(CO)(CCO)O2 (stereo partly drawn)
  AID923 = -1.4%

CCC1=C(OC(=O)N(CC)CC)N2C(=O)OC(=NCC3CC3)[C@]2(C)[C@H]2C1=CC[C@H]1C(=O)NC(=O)[C@H]12
  AID923 = 0.6%

COc1ccc(C(=O)NCCc2ccc(S(N)(=O)=O)cc2)cc1OC
  AID923 = -0.2%

The whole of this part, previewed entries included:
CC1CCC2[C@](C)(CO)C(O)CC[C@]2(C)C12CCC(CO)(CCO)O2 (stereo partly drawn)
  AID923 = -1.4%

CCC1=C(OC(=O)N(CC)CC)N2C(=O)OC(=NCC3CC3)[C@]2(C)[C@H]2C1=CC[C@H]1C(=O)NC(=O)[C@H]12
  AID923 = 0.6%

COc1ccc(C(=O)NCCc2ccc(S(N)(=O)=O)cc2)cc1OC
  AID923 = -0.2%

CC(=O)OC1CC[C@]2(C)C(CC(OC(C)=O)[C@@]3(C)C4=CC(=O)OC(c5ccoc5)[C@]4(C)CCC23)C1(C)C (stereo partly drawn)
  AID923 = -1.7%&0.9%&0.2%

CCC(=O)Nc1c(C)cc(C)cc1Cl
  AID923 = 0.5%

CC(C)C(NC(=O)C(Cc1ccc(O)cc1)NC(=O)C(NC(=O)C(F)(F)F)C(C)C)C(=O)O (stereo not drawn)
  AID923 = 0.3%

CC1CC(C)CN(C(=O)CSc2nnc(-c3ccc(Cl)s3)o2)C1 (stereo not drawn)
  AID923 = 3.3%

Cc1cc(O)c(C=O)c2c1C(=O)Oc1c(COC(=O)/C=C/C(=O)O)c(O)c(C(=O)O)c(C)c1O2
  AID923 = -3.7%

COC(=O)[C@@H]1C[C@@]2(O)[C@H](O)[C@H](O)[C@H](O)C[C@H]2N1Cc1cccc2ccccc12
  AID923 = 1.8%

N#Cc1ccc(C23CC4(C2)[C@H](CN(CC2CCCCC2)[C@@H]4c2ccccc2)C3c2ccc(Cl)nc2)cc1 (stereo partly drawn)
  AID923 = -1.3%

CC(CCC(=O)O)C1CCC2C3CC[C@H]4CC(O)CC[C@@]4(C)C3CC(O)[C@]12C (stereo partly drawn)
  AID923 = 0.4%

COC(=O)[C@@H]1C[C@@]2(O)[C@@H](O)[C@@H](O)[C@@H](O)C[C@H]2N1Cc1ccc(C)s1
  AID923 = 0.5%

COC(=O)c1c(Cl)c(Cl)c(C(=O)OC)c(Cl)c1Cl
  AID923 = 0.8%

COc1cc(OC)cc(OC)c1
  AID923 = -0.5%

Cc1ccc(-n2nnc3c(=O)n(Cc4cccc(C)c4)cnc32)cc1
  AID923 = 2.9%

COC(=O)C1C2CC3c4[nH]c5cc(OC)ccc5c4CCN3CC2CC(OC(=O)c2cc(OC)c(OC)c(OC)c2)C1OC (stereo not drawn)
  AID923 = 8.1%

O=C(O)C1CC(C2CCCCN2)CN2CCCCC12 (stereo not drawn)
  AID923 = -0.5%

O=c1c(O)c(-c2ccc(O)c(O)c2)oc2c(OC3OC(CO)C(O)C(O)C3O)c(O)cc(O)c12 (stereo not drawn)
  AID923 = -2.6%

O=c1[nH]c(=O)c2nc(Br)n(C3OC(CO)C(O)C3O)c2[nH]1 (stereo not drawn)
  AID923 = 0.0%

CC1(C)CC[C@]2(C(=O)O)CC[C@]3(C)C(=CCC4[C@@]5(C)CC[C@H](O)C(C)(C)[C@@H]5CC[C@]43C)C2C1 (stereo partly drawn)
  AID923 = 1.6%

COc1ccc(N2C(=O)c3ccccc3NC23CCCCC3)cc1
  AID923 = 2.2%

O=c1oc2ccccc2cc1O
  AID923 = -2.1%

COc1c(C(C)C)oc2cc3oc(=O)ccc3cc12
  AID923 = -0.2%

NCC1O[C@@H](OC2C(N)C[C@H](N)[C@@H](O[C@H]3OC(CO)C(O)C(N)C3O)C2O)C(N)C(O)C1O (stereo partly drawn)
  AID923 = -1.6%

COC(=O)[C@@H]1C[C@@H]2CC[C@@H](O)C[C@@H]2N1Cc1ccccc1OS(=O)(=O)c1ccc(C)cc1
  AID923 = -0.2%

O=C1CC(c2ccc(O)cc2)Oc2cc(O)cc(O)c21 (stereo not drawn)
  AID923 = -0.7%&-3.1%

CC1=C(/C=C/C(C)=C/C=C/C(C)=C/C=C/C=C(C)/C=C/C=C(C)/C=C/C(=O)[C@]2(C)CC(O)CC2(C)C)C(C)(C)CC(O)C1 (stereo partly drawn)
  AID923 = -0.2%

CCn1c(SCC(=O)N2CCCc3ccccc32)nc2c(c1=O)SC(C)C2 (stereo not drawn)
  AID923 = -1.7%

CC(=O)OCC(=O)[C@@]1(O)CCC2C3CC(C)C4=CC(=O)C=CC4(C)C3C(O)CC21C (stereo partly drawn)
  AID923 = -0.6%

CC(=O)OC(C)(C)C1Cc2cc3ccc(=O)oc3cc2O1 (stereo not drawn)
  AID923 = -0.4%

CC1CCC(NC(=O)N(CCCl)N=O)CC1 (stereo not drawn)
  AID923 = -2.1%

CCc1ccccc1N1C(=O)C2CC(C)=C(C)CC2C1=O (stereo not drawn)
  AID923 = 0.2%

Cc1nnc(SCC2=C(C(=O)O)N3C(=O)C(NC(=O)Cn4cnnn4)[C@@H]3SC2)s1 (stereo partly drawn)
  AID923 = 1.7%

COc1ccc2c(c1OC)C(Cc1ccccc1)N1CCc3cc4c(cc3C1C2)OCO4 (stereo not drawn)
  AID923 = 5.5%

CC(=O)OCC(CCn1cnc2cnc(N)nc21)COC(C)=O
  AID923 = -1.0%

COC(=O)[C@@H]1C[C@@]2(O)[C@@H](O)[C@@H](O)[C@@H](O)C[C@H]2N1Cc1ccc(C(C)(C)C)cc1
  AID923 = -0.6%

Cc1ccc2c(c1)CC[C@H]1CC(=O)CC[C@@]21C
  AID923 = 1.3%

CC(=O)OC1CC2C(C)(C)C(=O)C3OC3[C@]2(C)C2CC[C@@]3(C)C(c4ccoc4)OC(=O)C4OC43[C@]12C (stereo partly drawn)
  AID923 = 0.5%

CCN(CCO)CCCC(C)Nc1ccnc2cc(Cl)ccc12 (stereo not drawn)
  AID923 = -0.8%

COC(=O)c1cccc(C23CC4(C2)[C@H](CN(Cc2cccnc2)[C@@H]4c2ccccc2)C3c2ccc(C(F)(F)F)cc2)c1 (stereo partly drawn)
  AID923 = -0.6%

Nc1nc2c(nc(Br)n2C2CC(O)C(CO)O2)c(=O)[nH]1 (stereo not drawn)
  AID923 = 7.2%

CCC1=C(OC(=O)N(CC)CC)N2C(=O)OC(=NCC3CC3)[C@]2(C)[C@H]2C1=CC[C@H]1C(=O)N(C)C(=O)[C@H]12
  AID923 = -1.7%

CN1CCN(C(=O)Cn2c(=O)oc3cc(S(=O)(=O)NCc4ccccc4)ccc32)CC1
  AID923 = 0.3%

C=CC(C1=CC(=O)C(OC)=CC1=O)c1ccc(O)cc1 (stereo not drawn)
  AID923 = -0.3%

CSCCC(NC=O)C(=O)NC(CC(C)C)C(=O)NC(Cc1ccccc1)C(=O)O (stereo not drawn)
  AID923 = -3.0%

CCS(=O)(=O)N1CCN(c2cccc(C)c2C)CC1
  AID923 = -2.9%

COC(=O)c1c(OC)cc2c(c1C)Oc1c(Cl)c(O)c(Cl)c(C)c1C(=O)O2
  AID923 = -3.1%

Cn1c(=O)c(C(=O)COC(=O)c2cc(C(F)(F)F)nc3ccccc23)c(N)n(Cc2ccccc2)c1=O
  AID923 = 3.8%

Cc1oc2cc(O)ccc2c(=O)c1Oc1ccccc1
  AID923 = 9.0%

Cn1c(=O)c(C(=O)COC(=O)c2cc(C(F)(F)F)nc3c(C(F)(F)F)cccc23)c(N)n(Cc2ccccc2)c1=O
  AID923 = 3.5%

COC(=O)[C@@H]1C[C@H]2CC[C@H](O)C[C@H]2N1Cc1ccc(C)s1
  AID923 = 1.8%

O=C(O)C1C(c2ccccc2)C(C(=O)OCc2ccco2)C1c1ccccc1 (stereo not drawn)
  AID923 = 2.3%

CC(C)(C)c1ccc(OCC(O)CS(=O)(=O)c2ccccn2)cc1 (stereo not drawn)
  AID923 = 0.4%

COC(=O)CC1[C@@]2(C)C[C@@]34OC5(C)OC6(CC[C@@]7(C)C(c8ccoc8)OC(=O)C(C(C)=O)C7[C@]6(O5)C(O)[C@@]3(O)C2O)[C@]14C (stereo partly drawn)
  AID923 = 0.5%

COC(=O)c1ccc(NC(=O)C2CCCN2S(=O)(=O)c2ccc(C)cc2)cc1 (stereo not drawn)
  AID923 = -1.6%

COc1cc(OC)c2c(c1)OC(c1ccccc1)CC2=O (stereo not drawn)
  AID923 = -1.2%

CCCCSCc1[nH]c(=O)[nH]c1C(=O)CCCCC(=O)OCC
  AID923 = 1.5%

O=C1OC(=O)C2C3CCC(O3)C12 (stereo not drawn)
  AID923 = 0.2%&-1.6%

COC1=CC(=O)C=C(OC)C1=O
  AID923 = -0.2%

COC(=O)c1ccc(C2c3c(n[nH]c3C)C(=O)N2c2ccc(C)cc2)cc1 (stereo not drawn)
  AID923 = -0.3%

Cc1nnc(SCC(=O)NCCOc2ccc(Cl)cc2)n1-c1ccccc1
  AID923 = 0.4%

O=C/C=C/c1ccc(O)cc1
  AID923 = -2.1%

CCC1=C(OC(=O)N(CC)CC)N2C(=O)OC(=NCCOC)[C@]2(Cc2ccccc2)[C@H]2C1=CC[C@H]1C(=O)NC(=O)[C@H]12
  AID923 = -0.7%

CC(C1OC(C)(C)C(O)C1O)C1CC[C@@]2(C)C3=CCC4C(C)(C)C(=O)CC[C@]4(C)C3CC[C@@]12C (stereo partly drawn)
  AID923 = -2.4%

OCC1O[C@@H](OC2C(O)C(CO)O[C@@]2(CO)O[C@@H]2OC(CO)C(O)C(O)C2O)C(O)C(O)C1O (stereo partly drawn)
  AID923 = -1.7%

COC(=O)C1=C(C)N(C)C(C)=C(C(=O)OC)C1c1ccsc1
  AID923 = 0.9%

CCCCC(=O)N(Cc1ccc(-c2ccccc2-c2nn[nH]n2)cc1)C(C(=O)O)C(C)C (stereo not drawn)
  AID923 = 0.1%

O=c1cc(-c2ccc(O)c(O)c2)oc2cc(OC3OC(CO)C(O)C(O)C3O)cc(O)c12 (stereo not drawn)
  AID923 = 0.3%

CC1C2CC(C(CN(C)C)/C2=N/O)C1(C)C (stereo not drawn)
  AID923 = -1.7%

CC1CCC2(OC1)OC1CC3C4CCC5CC(O)CCC5(C)C4=CCC3(C)C1C2C (stereo not drawn)
  AID923 = 3.3%

CC(=O)Oc1cccc(C(=O)O)c1OC(C)=O
  AID923 = -0.8%

COC(=O)[C@@H]1C[C@@H]2CC[C@@H](O)C[C@@H]2N1Cc1ccc(-c2ccccc2)cc1
  AID923 = 1.7%

C=C1C(=O)OC2CC1C(OC(C)=O)CC(C)=CCCC(C)=CCC[C@@]2(C)O (stereo partly drawn)
  AID923 = 0.4%

CN(CC(CC(=O)Nc1nncs1)c1ccccc1)S(=O)(=O)c1ccccc1 (stereo not drawn)
  AID923 = -1.7%

CCOc1ccc(N=CC2=C(O)CC(C)(C)CC2=O)cc1
  AID923 = 18.8%

CS(=O)(=O)N1CCN(C(=O)Cc2ccccc2)CC1
  AID923 = 2.2%

C/C(=C\COc1cc(=O)[nH]c2ccccc12)CCC(O)C(C)(C)O (stereo not drawn)
  AID923 = 0.4%

N#Cc1ccc(C23CC4(C2)[C@H](CN(Cc2cccnc2)[C@@H]4c2ccccc2)C3c2ccc(C(F)(F)F)cc2)cc1 (stereo partly drawn)
  AID923 = -0.9%

C=C1CCC(C2CC(=O)OC2=O)C(=O)CCC2C1CC2(C)C (stereo not drawn)
  AID923 = -0.8%

O=C(NCCOC(=O)C1COc2ccccc2O1)C1COc2ccccc2O1 (stereo not drawn)
  AID923 = 1.3%

COC(=O)[C@@H]1C[C@@]2(O)[C@@H](O)[C@@H](O)[C@@H](O)C[C@H]2N1C/C=C/c1ccccc1
  AID923 = -1.3%

O=C(C1CCN(Cc2ccccc2)CC1)N1CCCC1
  AID923 = 0.0%

COC(=O)C1OC(=O)C2O[C@@]23[C@]2(C)C(OC(C)=O)CC4C(C)(C)C(=O)CC[C@]4(C)C2CC[C@@]13C (stereo partly drawn)
  AID923 = -1.7%

COc1ccc(S(=O)(=O)N2CCN(Cc3cccc(Cl)c3)CC2)cc1
  AID923 = -0.3%

CCOC(=O)C(NC(=O)c1ccccc1)=C1C=C(C)OC(C)=C1
  AID923 = 0.4%

O=S(=O)(NC1CCCCC1NCc1ccco1)c1ccc(Cl)cc1 (stereo not drawn)
  AID923 = -1.5%

CCOC(=O)C1=C(C)Nc2ncnn2C1c1cc(OC)ccc1OC (stereo not drawn)
  AID923 = 3.0%

CC(C)=CCc1c2c(c3occ(-c4ccc(O)cc4)c(=O)c3c1O)C=CC(C)(C)O2
  AID923 = -3.9%

OC1C=C2CCN3Cc4cc5c(cc4C(C1O)C23)OCO5 (stereo not drawn)
  AID923 = 5.8%

CC1Cc2nc(SCC(=O)N3CCCc4ccccc43)n(C)c(=O)c2S1 (stereo not drawn)
  AID923 = -3.8%

Retrieved by compound from the entries so far, 2 records:
O=C/C=C/c1ccc(O)cc1
  AID923 = -2.1%

CC1CCC2[C@](C)(CO)C(O)CC[C@]2(C)C12CCC(CO)(CCO)O2 (stereo partly drawn)
  AID923 = -1.4%

The results go on:
C=CC(C1=CC(=O)C(OC)=CC1=O)c1ccccc1 (stereo not drawn)
  AID923 = -1.3%

COC(=O)c1cccc(C23CC4(C2)[C@H](CN(C)[C@@H]4c2ccccc2)C3c2ccc(C(F)(F)F)cc2)c1 (stereo partly drawn)
  AID923 = -1.2%

COC(=O)c1cccc(C#CC(NP(=O)(c2ccccc2)c2ccccc2)c2ccccc2)c1 (stereo not drawn)
  AID923 = 2.1%

CC(=O)OC[C@@]1(O)C[C@]23CCC4c5ccoc5CC[C@@]4(C)C2CCC1C3 (stereo partly drawn)
  AID923 = 1.6%

CCOC(=O)c1c(CN(CC)CC)oc2cc(Br)c(O)cc12
  AID923 = -0.9%

CC(CCC(=O)O)C1CCC2C3C(=O)CC4CC(=O)CC[C@@]4(C)C3CC(=O)[C@]12C (stereo partly drawn)
  AID923 = -0.6%

An excerpt, so the mix of outcomes need not match the whole.
